Mtb hypoxia inh = inhibitors of hypoxia-regulated fluorescent reporter in Mycobacterium tuberculosis; M. tuberculosis hypoxia-regulated fluorescent reporter, fluorescence; fluorescence inhibition, % (no concentration beside the values); 300,000 tested, 0.1% active;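 active = 35 to 45% if threefold the growth effect, above 45% if 1.5-fold the growth effect; inactive = the rest, general growth blockers included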;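 also: wells of about 50 µL received 100 nL stock; 0% = vehicle wells and 100% = reference inhibitor wells; whole bacteria with a GFP reporter of the hypoxia response; strong numbers were not always called active; many hits fall short of the cut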
ugtP null kill = kills S. aureus RN4220 lacking UgtP. AID 1259309. growth inhibition, % (no concentration beside the values). 330,000 tested, 0.54% active. S. aureus RN4220 ugtP deletion, OD600 growth, 16 h; some inactives read as strong as hits;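 active = z-score under -3 and OD600 up to 0.15 on both plates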;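 also: plate controls were untreated wells for no effect and antibiotic for full effect; wells of about 80 µL received 100 nL stock; the first replicate is given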
BJeLR viability = kills HRASV12-expressing BJeLR cells; AID 1554; inhibition, % (concentration not given with the values); BJeLR (HRASV12) viability, CellTiter-Glo ATP luminescence, 48 h; reference of the scale not given here; 300,000 tested, 0.17% active;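 active = replicate mean above 50%; inconclusive = above 50% but judged a plate artefact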;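 also: 50 nL library stock added to about 25 µL; numbers are from one replicate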
Bead autofluor = compound fluorescence in toxin protease inhibitor counterscreen | compound autofluorescence counterscreen, microsphere flow cytometry; stronger effect = higher value | 360,000 tested, 3.1% active | fluorescence intensity (test concentration not listed) | AID 624483;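 active = at least 3 SD above the mean of all compounds, about 16000 in these data; inconclusive = too few beads counted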;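 also: 100 nL of 1 mM stock went into each well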
RN4220 kill = S. aureus RN4220 growth inhibition. OD600, 16 h. inhibition, % (test concentration not listed). 330,000 tested, 0.33% active. AID 1259311;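 active = z-score of -3 or lower and OD600 up to 0.18 on both plates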;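 also: plate controls were untreated cells for no effect and reference antibiotic for full effect; stock transfer was 100 nL into about 80 µL; one replicate is shown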
PrP UTR inh = inhibition of PrP 5' UTR reporter expression | cell-based PrP 5' UTR mRNA reporter, plate reader | inhibition, % (concentration not given with the values) | 340,000 tested, 0.35% active | AID 488862;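 active = every replicate at 50% or more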;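 also: 0 = median of the neutral control wells; tested in H4 reporter cells; numbers are from one replicate; inactives centre near -14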
Mtb hypoxia inh growth = second read-out of Mtb hypoxia inh, no call of its own (marks repeat the call); growth inhibition, %; measured here: M. tuberculosis growth (absorbance);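 0% = vehicle and 100% = reference antibiotic; read after six days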
An asterisk follows results filed as active; u = inconclusive; x = no result given; & = joins results of further samples.

Short forms: A = Mtb hypoxia inh; B = Mtb hypoxia inh growth; C = ugtP null kill; D = BJeLR viability; E = Bead autofluor; F = RN4220 kill; G = PrP UTR inh
> NS(=O)(=O)c1ccc2nc(NC(=O)C3=COCCO3)sc2c1
  A: 13.3; B: 1.5; C: -1.0; D: 3.2; E: 4747; F: 1.4; G: -80.4

> CC(=O)N1CCCc2cc(S(=O)(=O)Nc3ccc4c(c3)OCO4)ccc21
  A: 12.1; B: 8.4; C: -1.1; D: -13.4; E: 2126; F: -3.0; G: -10.8

> CC(C)c1nnc(NC(=O)CCS(=O)(=O)c2nc(-c3cccs3)cc(C(F)(F)F)n2)s1
  A: 19.4; B: 6.9; C: 6.5; D: 8.3; E: 9797; F: 3.6; G: -8.2

> O=C(Cn1c(=O)cnc2ccccc21)N1CCCc2ccccc21
  A: 15.6; B: -0.8; C: 10.4; D: 0.4; E: 3590; F: 0.3; G: -20.2

> CCOc1ccc(Cl)cc1S(=O)(=O)N1CCC(C(=O)NCc2ccncc2)CC1
  A: 6.0; B: 0.6; C: 7.6; D: -5.0; E: 3851; F: 1.7; G: -8.7

> O=C(O)C1CC(c2ccc(F)cc2)=NO1 (configuration not stated)
  A: -0.7; B: 2.4; C: -4.8; D: 4.6; E: 11441; F: 1.2; G: -10.6

> CCOC(=O)C1(Cc2ccccc2)CCCN(Cc2ccc(OCCO)cc2)C1 (configuration not stated)
  A: -4.3; B: 4.4; C: 6.2; D: 4.2; E: 4504; F: 1.9; G: -10.8

> CN(C)/C=C/C(=O)c1cnc2n(c1=O)CCS2
  A: 5.2; B: -5.9; C: 14.3; D: -2.2; E: 4190; F: 4.2; G: -42.3

> CC(=O)c1cccc(NC(=O)NC(C)C2CCCO2)c1 (configuration not stated)
  A: 8.8; B: -6.9; C: -1.6; D: 4.9; E: 4351; F: -0.1; G: -15.8

> CCOc1ccc(N2C(=O)CN(C)C2=S)cc1
  A: 0.8; B: 1.9; C: 4.1; D: 13.5; E: 2192; F: -2.3; G: -9.2

> OCCC1CC(O)C(O)[C@]2(CCCO2)O1 (some centres not stated)
  A: -0.5&11.1&-3.7&5.8; B: 5.9&3.6&9.9&8.1; C: x; D: x; E: x; F: x; G: x

> COc1cccc(CN(C)C(=O)c2ccc(C)c(S(=O)(=O)N3CCCCC3)c2)c1
  A: -3.7; B: 10.4; C: -10.9; D: x; E: 3691; F: -4.3; G: -5.0

> Cc1ccc2c(c1)C(=O)OC1(O)C3C4C=CC(C4)C3C(=O)N21 (configuration not stated)
  A: 5.1; B: 1.0; C: 9.2; D: 1.7; E: x; F: 2.5; G: -10.4

> O=C(COc1ccccc1F)N1CCCc2ccccc21
  A: 13.8; B: 3.2; C: 3.6; D: -5.9; E: 3988; F: 6.9; G: -15.3

> CCCOc1ccc(-c2c(C(=O)NN=Cc3ccc(OCC)cc3)nnn2-c2nonc2N)cc1
  A: -1.6; B: -3.5; C: 23.8; D: x; E: x; F: 3.9; G: x

> O=C(/C=C/c1cccc(Br)c1)Nc1nn[nH]n1
  A: 13.3; B: -0.7; C: -2.2; D: 2.5; E: x; F: 6.2; G: x

> CN1CCN(Cc2c(F)cccc2Cl)CC1
  A: -10.8; B: 7.0; C: 3.5; D: 1.4; E: 3777; F: 0.7; G: -51.6

> CCc1nnc(NC(=O)c2c(-c3ccccc3)noc2C)s1
  A: 0.5; B: -17.3; C: -2.1; D: -1.9; E: 5754; F: 3.5; G: -15.4

> CC(=O)N1CCc2cc(S(=O)(=O)CCC(=O)N3CCN(c4ccccc4)CC3)ccc21
  A: -0.3; B: -4.1; C: 3.8; D: -4.2; E: 4404; F: 2.6; G: 11.6

> CC(C)NC(=O)CCCN1C(=O)c2ccccc2Sc2ncccc21
  A: -9.4; B: 6.1; C: 1.3; D: -1.0; E: 3428; F: -1.4; G: 4.4

> Cc1cccnc1-n1c(C)nc2ccccc2c1=O
  A: -0.3; B: 5.2; C: -4.8; D: -7.8; E: 2434; F: -14.1; G: 7.6

> Cc1ccc(NC(=S)N2CCN(CCN3C(=O)c4cccc5cccc(c45)C3=O)CC2)cc1
  A: -0.4; B: -4.6; C: -5.9; D: 2.1; E: x; F: 4.3; G: -20.1

> O=C1NC(=S)N/C1=C/c1cccn1-c1ccc([N+](=O)[O-])cc1
  A: x; B: x; C: x; D: 7.9; E: 3233; F: x; G: -28.4

> O=C(CN1C(=O)COc2ccccc21)NCCCN1CCN(Cc2ccccc2)CC1
  A: 8.6; B: 13.1; C: 10.3; D: 1.8; E: 7815; F: 5.1; G: -35.2

> COc1cc(NC(=O)COC(=O)C2CC2)c(C)cc1[N+](=O)[O-]
  A: 17.7; B: 17.0; C: 9.3; D: -15.6; E: 2125; F: -1.2; G: -13.1

> Cc1ccc(S(=O)(=O)N2CCCCC2CCNC(=O)C(=O)NCC2CCCO2)cc1 (configuration not stated)
  A: x; B: x; C: x; D: -3.8; E: 5307; F: x; G: -21.1

> COc1cccc(CNC(=O)CN2C(=O)c3ccccc3S2(=O)=O)c1
  A: -3.6; B: 4.4; C: -0.9; D: 3.7; E: u; F: 0.5; G: 10.5

> O=C(NC1CCCC1)c1ccc(COCC(F)(F)F)o1
  A: 15.5; B: 8.3; C: 3.5; D: 6.3; E: 6951; F: 0.4; G: -15.7

> CN(C)C(=O)CCc1ccc2c3c([nH]c2c1)[C@]1(C)[C@@H](C(=O)N2CCOCC2)C[C@H](CC(=O)NCc2ccco2)C(=O)N1CC3
  A: -3.2; B: 2.0; C: 4.3; D: x; E: 3709; F: 1.2; G: -15.1

> N#Cc1ccc(NC(=O)CN2CCCC2)cc1Cl
  A: 13.6; B: 5.0; C: 2.3; D: 2.8; E: 4343; F: 0.7; G: -3.6

> CCOC(=O)C(NC(=O)CC)(Nc1ccc(S(N)(=O)=O)cc1)C(F)(F)F (configuration not stated)
  A: -7.1; B: -13.3; C: -3.6; D: 0.2; E: 4271; F: -3.0; G: -16.2

> C/C(=N\NS(=O)(=O)c1ccc(Cl)cc1)c1ccc(NC(=O)c2ccco2)cc1
  A: x; B: x; C: x; D: -14.0; E: 2109; F: x; G: -33.8

> CS(=O)(=O)Nc1cccc(C2=NN(S(C)(=O)=O)C(c3ccc4c(c3)OCO4)C2)c1 (configuration not stated)
  A: 5.8; B: 5.3; C: -0.7; D: 13.9; E: 3631; F: 11.2; G: -54.9

> O=C(/C=C/c1ccccc1)NCCOc1ccccc1
  A: 4.4; B: 4.0; C: 4.2; D: -1.7; E: 2010; F: 0.7; G: -24.0

> Cc1cc(/C=C2\C(=O)NC(=O)N(c3ccc(F)cc3)C2=O)c(C)n1-c1cccc(C(=O)O)c1
  A: 6.5; B: -2.0; C: -2.0; D: 5.7; E: 4812; F: 4.0; G: -26.0

> Cc1ccc(NC(=O)CCC(=O)NNC(=O)Nc2cccc(Cl)c2)c(C)c1
  A: 2.4; B: 0.4; C: 1.2; D: -0.4; E: 5834; F: 2.5; G: -25.5

> O=S(=O)(c1cc(Cl)cc(Cl)c1)N1CCCC1c1nc2ccccc2s1 (configuration not stated)
  A: 8.5; B: 8.6; C: 5.3; D: 0.3; E: 3716; F: 3.8; G: -12.4

> O=C1c2ccccc2C(O)(c2ccccc2)N1c1ccc([N+](=O)[O-])cc1Cl (configuration not stated)
  A: 19.3; B: 20.9; C: -4.5; D: x; E: 3704; F: 4.2; G: -14.5

> CS(=O)(=O)c1cccc(-c2nnc(NC(=O)c3ccc(S(=O)(=O)N4CCCC4)cc3)o2)c1
  A: 8.6; B: 13.8; C: 2.8; D: 4.2; E: u; F: 4.6; G: -12.0

> O=c1c(Cl)c(N2CCN(c3ccc(F)cc3)CC2)cnn1C12CC3CC(CC(C3)C1)C2
  A: 3.5; B: 10.1; C: 8.8; D: 6.3; E: 2426; F: -5.1; G: 3.5

> Cc1cccc(-c2noc(-c3c(C)noc3C)n2)c1
  A: -0.3; B: 4.5; C: -13.3; D: -0.4; E: 3576; F: 1.1; G: x

> COc1cc2c(cc1OC)CN(C(=O)c1ccc(S(=O)(=O)N(C)c3ccccc3)cc1)CC2
  A: -15.2; B: 4.9; C: -6.2; D: -3.4; E: 3630; F: 0.1; G: -7.7&-13.9

> CCC1(c2ccc(F)cc2)NC(=O)N(CC(=O)Nc2cccc(S(=O)(=O)N3CCOCC3)c2)C1=O (configuration not stated)
  A: 5.5; B: 3.9; C: -8.6; D: x; E: 2864; F: -2.1; G: -11.1

> CCN1CCN(Cc2nc(N)nc(Nc3ccc(C)c(C)c3)n2)CC1
  A: -2.2; B: -2.2; C: 4.9; D: -0.2; E: 15559; F: 5.5; G: -20.0

> CNC(=O)c1ccc(N(Cc2ccccc2C)S(C)(=O)=O)cc1
  A: 11.3; B: 7.4; C: -3.4; D: -4.6; E: 10675; F: 8.3; G: -10.4

> CCCCN(CC)Cc1c(O)ccc2c3c(c(=O)oc12)CCC3
  A: 2.3; B: 6.4; C: 13.0; D: -5.4; E: x; F: 5.1; G: -1.7

> Cc1cnc(C(=O)OCC(=O)NC(=O)c2ccccc2)cn1
  A: 7.3; B: -0.5; C: 0.6; D: -8.2; E: 6214; F: 0.0; G: -11.2

> COc1cccc(/C=C2\SC(N3CCC(C)CC3)=NC2=O)c1OC
  A: -6.5; B: 13.7; C: 5.4; D: -6.5; E: 3859; F: 1.8; G: -5.3

> O=C(C1CCC(CNS(=O)(=O)c2cccs2)CC1)N1CCCCC1 (configuration not stated)
  A: x; B: x; C: 3.5; D: -15.5; E: 2620; F: 3.9; G: -19.6

> CC(NC(=O)CCN1C(=O)c2ccccc2C1=O)c1ccc2c(c1)CCCC2 (configuration not stated)
  A: 7.4; B: 2.2; C: 5.5; D: 6.0; E: 2446; F: 2.3; G: -5.9

Two compounds from above, reduced to RN4220 kill, Bead autofluor and Mtb hypoxia inh growth.
| Structure | RN4220 kill | Bead autofluor | Mtb hypoxia inh growth |
| --- | --- | --- | --- |
| CCC1(c2ccc(F)cc2)NC(=O)N(CC(=O)Nc2cccc(S(=O)(=O)N3CCOCC3)c2)C1=O (configuration not stated) | -2.1 | 2864 | 3.9 |
| COc1cccc(/C=C2\SC(N3CCC(C)CC3)=NC2=O)c1OC | 1.8 | 3859 | 13.7 |

Grouped by structure, the entries above containing a furan ring, fused or not.
Short forms: A = Mtb hypoxia inh; B = Mtb hypoxia inh growth; C = ugtP null kill; D = BJeLR viability; E = Bead autofluor; F = RN4220 kill; G = PrP UTR inh
> O=C(NC1CCCC1)c1ccc(COCC(F)(F)F)o1
  A: 15.5; B: 8.3; C: 3.5; D: 6.3; E: 6951; F: 0.4; G: -15.7

> CN(C)C(=O)CCc1ccc2c3c([nH]c2c1)[C@]1(C)[C@@H](C(=O)N2CCOCC2)C[C@H](CC(=O)NCc2ccco2)C(=O)N1CC3
  A: -3.2; B: 2.0; C: 4.3; D: x; E: 3709; F: 1.2; G: -15.1

> C/C(=N\NS(=O)(=O)c1ccc(Cl)cc1)c1ccc(NC(=O)c2ccco2)cc1
  A: x; B: x; C: x; D: -14.0; E: 2109; F: x; G: -33.8

(list continues)
Short forms: A = Mtb hypoxia inh; B = Mtb hypoxia inh growth; C = ugtP null kill; D = BJeLR viability; E = Bead autofluor; F = RN4220 kill; G = PrP UTR inh
> CN1C(=O)C(=Cc2sc(=O)n(-c3ccccc3)c2N(C)C)C(=O)N(C)C1=O
  A: 8.3; B: 13.9; C: 0.4; D: 6.1; E: 4600; F: 5.5; G: -36.9

> CC(CCc1ccccc1)NC(=O)CCNC(=O)Cn1ccc2ccccc2c1=O (configuration not stated)
  A: -8.4; B: -1.7; C: -2.9; D: -3.8; E: 4375; F: -6.0; G: -12.7

> COc1ccc(C2c3[nH]c4ccccc4c3C[C@H]3C(=O)N(CCCO)CC(=O)N23)cc1OC (some centres not stated)
  A: -9.4; B: 0.4; C: 0.5; D: -2.8; E: 3651; F: 0.4; G: 3.9

> COc1ccccc1NC(=O)c1nnn(CC(=O)Nc2cc(C)cc(C)c2)c1N
  A: -7.7; B: -8.3; C: 7.7; D: -2.2; E: x; F: 2.5; G: -37.3

> COc1ccc(-c2nc3ccccc3c(=O)n2CCOc2ccc(C)cc2C)cc1
  A: 1.7; B: 10.6; C: 32.0; D: -7.3; E: 2730; F: -5.9; G: -1.4

> O=C(CSc1nnc(-c2cccc(F)c2)o1)NC1CCCC1
  A: -14.0; B: -3.8; C: 3.7; D: -1.2; E: 5344; F: 1.6; G: 11.5

> CCNC(=O)C(CCSC)NS(=O)(=O)c1ccc(C)cc1 (configuration not stated)
  A: -1.1; B: -1.7; C: 3.3; D: 3.8; E: 3623; F: 2.6; G: 14.0
